# miR-21 FLuc – miR-21 reporter, rising signal; 340,000 tested, under 10 active; HeLa miR-21 FLuc reporter, luciferase, 48 h; Potency, µM (series often up to 38.3 µM), for inactives: at the highest dose reporter change, positive = more light; active = well fitted rising curve with a large enough effect; inconclusive = small, poorly fitted or top-dose-only effect; inactive = no such curve, though single readings can be large or run the other way;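 also: % of control where 0% means no effect; miR-21 action dims this reporter so a rising signal means less miR-21 action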
#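 Using DMEM plus 10% FBS, HeLa miR-21-FLuc cells are incubated with test compounds (final up to about 40uM) for 48 hours; firefly luciferase signal is then imaged following reagent-mediated lysis.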
# Rango release inh – inhibition of RanGTP-driven Rango-importin beta dissociation. Potency, µM (highest dose often 46.1 µM), for the others: at the highest dose activity change, negative = inhibition. O95149+P62826. 340,000 tested, 0.071% active. Biochemical FRET Rango-importin beta, RanGTP-induced dissociation; active means falling FRET ratio curve, often poorly fitted, with flat reads before Ran was added; inconclusive means other falling curves, or compound fluorescence or quenching; inactive means flat or rising ratio curve;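 also: potency is read from the fitted curve at half-maximal effect; % of control where 0% means no effect; nearly all actives have a fitted effect of over 45% in size; -100% = wells without RanGTP and RCC1; the record marks most hits as doubtful in a second field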
#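 Compounds sat 5 min at room temperature with 0.1 uM Rango biosensor plus 0.25 uM importin beta, then FRET pre-read. RanGTP-RCC1 (0.6 uM Ran, 2mM GTP, 0.2 uM RCC1) added for 45 min, and the CFP/YFP post-read measured blocked complex dissociation.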
# GLA inh pH 4.5 – alpha-galactosidase A (human) inhibition, pH 4.5; AID 1467; purified enzyme, 4-MU-alpha-Gal fluorescence, pH 4.5; 230,000 tested, under 10 active; activity change, negative = inhibition, % at 105 µM; P06280; inconclusive = small, poorly fitted or top-dose-only inhibition, or a rising curve; inactive = flat fitted curve, though single readings scatter; no compound was filed as active;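 also: 0% = full activity with enzyme and -100% = basal without enzyme; dose as in the result columns while the protocol names 77 µM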
# Rango complex inh – prevents formation of the Rango-importin beta complex | Q14974 | Rango CFP/YFP FRET sensor + importin beta, 45 min | Potency, µM (doses to about 92.2 µM), for inactives: at the highest dose inhibition of complex formation | 340,000 tested, 0.031% active | AID 540263; active = rising FRET ratio curve, often small or poorly fitted; inconclusive = mostly compound fluorescence or quenching in the first reads; inactive = flat curves in all reads;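 also: potency is read from the fitted curve at half-maximal effect; 0% = DMSO wells and 100% = buffer wells lacking importin beta; nearly all actives have a fitted effect of over 15% in size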
# Target sequence (Q14974 whole entry, looked up): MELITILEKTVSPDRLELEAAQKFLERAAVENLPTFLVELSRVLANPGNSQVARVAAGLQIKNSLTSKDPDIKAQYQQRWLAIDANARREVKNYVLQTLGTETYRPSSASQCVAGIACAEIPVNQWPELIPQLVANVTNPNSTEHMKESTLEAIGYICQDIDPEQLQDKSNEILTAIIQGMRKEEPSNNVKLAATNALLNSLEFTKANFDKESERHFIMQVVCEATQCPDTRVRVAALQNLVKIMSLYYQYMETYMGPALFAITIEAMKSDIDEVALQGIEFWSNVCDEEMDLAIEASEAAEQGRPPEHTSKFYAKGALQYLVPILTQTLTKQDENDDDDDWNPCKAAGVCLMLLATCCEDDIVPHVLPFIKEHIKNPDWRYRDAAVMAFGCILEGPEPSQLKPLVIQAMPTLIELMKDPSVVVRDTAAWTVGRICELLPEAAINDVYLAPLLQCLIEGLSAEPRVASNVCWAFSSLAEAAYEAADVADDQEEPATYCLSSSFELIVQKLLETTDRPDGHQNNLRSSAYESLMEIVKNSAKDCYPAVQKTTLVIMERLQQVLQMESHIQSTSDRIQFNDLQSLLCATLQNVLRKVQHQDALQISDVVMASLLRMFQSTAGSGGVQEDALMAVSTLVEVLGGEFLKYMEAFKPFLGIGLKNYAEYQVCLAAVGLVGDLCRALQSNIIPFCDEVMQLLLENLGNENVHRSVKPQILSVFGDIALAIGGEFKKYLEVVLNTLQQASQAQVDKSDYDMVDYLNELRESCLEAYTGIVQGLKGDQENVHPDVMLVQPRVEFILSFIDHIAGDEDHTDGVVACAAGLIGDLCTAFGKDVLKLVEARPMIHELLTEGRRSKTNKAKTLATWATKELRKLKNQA
#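 FRET biosensor (snurportin 1 IBB flanked by EYFP and cerulean), 50 nM, with compound 5 min, then 0.125 microM importin beta in PBS, 1 mM DTT, 0.02% Tween-20, 0.1% BSA. CFP/YFP ratio read after 45 min at room temperature; pre-read flags interference.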
# * = called active by the depositor; ? = inconclusive; nt = not tested or not shown; & = joins results of further samples. The list is partial, so the mix of outcomes need not match the whole.
SMILES,miR-21 FLuc,Rango release inh,GLA inh pH 4.5,Rango complex inh
C[C@]12CC[C@H](O)CC1C(=O)CC1C2CC[C@@]2(C)C1CC[C@@H]2O (some centres not stated),nt,2%,nt,-1.0%
CCC(=O)Nc1ccc(N2CCN(CC)CC2)c(Cl)c1,-11%,-5%,3,?
COP(=O)(CC(=O)O)c1ccccc1 (configuration not stated),-3%,-4%,-1,-0.6%
C[C@@H]1C(=O)O[C@@H]2[C@H](O)C34[C@@H]5OC(=O)C3(O[C@H]3OC(=O)[C@H](O)C34[C@H](C(C)(C)C)[C@H]5O)[C@@]12O (some centres not stated),-3%,-7%,5,-2.2%
O=c1[nH]c2ccccc2o1,-5%,1%,15,-0.2%
CC12CN3CN(C1)CC(c1ccccc1)(C3)C2=O,-4%,-2%,-8,-0.4%
COc1ccc(CNCCc2c[nH]c3ccccc23)c(OC)c1OC,2%,5%,nt,11%
N#CCCn1cc(C(=O)Nc2ccc([N+](=O)[O-])cc2)c(-c2ccc3c(c2)OCCO3)n1,2%,13%,10,-2.8%
Oc1ccccc1Cl,nt,13%,nt,0.0%
COc1ccc(C(O)P(=O)(Oc2ccccc2)Oc2ccccc2)cc1 (configuration not stated),4%,1%,nt,4.5%
COc1ccc(CCNCc2ccc(Br)cc2)cc1OC,-4%,-18%,nt,-0.9%
CN1C(=O)NC(=O)/C(=C/c2ccc([N+](=O)[O-])o2)C1=O,5%,1%,-9,?
CCN1C(=O)C(=C/C=C/c2ccco2)C(=O)N(CC)C1=S,0%,?,-11,?
Cc1cc(NC(=O)CSc2nnc(C3CC3)n2N)no1,-1%,0%,8,?
Brc1cccc(CNCCc2ccc3c(c2)OCO3)c1,-10%,3%,nt,-0.2%
CC1([N+](=O)[O-])COP(=O)(NC2CCCC2)OC1 (configuration not stated),nt,-19%,nt,-2.5%
C=C1C(=O)O[C@@H]2C[C@@H](C)[C@@H]3C=CC(=O)[C@@]3(C)[C@@H](O)[C@H]12,?,-24%,2,?
Cc1cc(C)cc(OCCOc2cccc(C=C3C(=O)NC(=O)NC3=O)c2)c1,-21%,6%,nt,-1.0%
Clc1ccc(C(c2ccc(Cl)cc2)n2cc[n+](CC(OCc3ccc(Cl)cc3Cl)c3ccc(Cl)cc3Cl)c2)cc1 (configuration not stated),nt,12%,-15,4.6%
CN(C)C(=O)Oc1noc2cc(Cl)ccc12,11%,-5%,-4,-2.1%
Cc1ncc(CN2CCCC(C(=O)c3ccc(C(C)(C)C)cc3)C2)s1 (configuration not stated),-5%,5%,-8,-2.7%
CCOCCCn1c(N)c(C(=O)Nc2sc3c(c2C(=O)OC)CCCC3)c2nc3ccccc3nc21,-4%,-14%,8,?
Cc1ccc(CN2CCN(Cc3ccccc3F)CC2)cc1,-6%,-10%,1,0.0%
Cc1cc(N2CCCCC2)ccc1C=C1C(=O)N(C)C(=S)N(C)C1=O,-4%,4%,-7,-0.6%
CCCNC(=O)c1c(N)n(Cc2ccc3c(c2)OCO3)c2nc3ccccc3nc12,-5%,?,16,?
Cc1nonc1OCCNc1ccc([N+](=O)[O-])c2cccnc12,-18%,-14%,1,-1.7%
Cc1cc(OC(=O)N(C)C)nc(SCc2c(Cl)cccc2Cl)n1,0%,20%,-7,-1.1%
Cc1ccccc1N1C(=O)CC(=O)NC1=O,-3%,-16%,3,-3.7%
O=C1NC(=O)N(Cc2ccccc2)C(=O)/C1=C/c1cnn(-c2ccccc2)c1,-7%,nt,0,nt
CCN1C[C@@]2(COC)C3[C@@H](OC)[C@H]4[C@@H]1[C@@]3(C1C[C@H]3[C@H](OC(C)=O)C1[C@]4(OC(C)=O)C[C@H]3OC)[C@@H](OC)C[C@H]2OC(C)=O (some centres not stated),nt,-7%,nt,3.4%
CCOC(=O)C1=C(C)OC(N)=C(C(=O)OCC)C12C(=O)Nc1ccc(Br)cc12 (configuration not stated),0%,35%,4,-1.1%
CCC1(c2ccc(-c3ccccc3)cc2)C(=O)NC(=O)NC1=O,-9%,9%,nt,-0.3%
Cc1nn(-c2ccccc2)c(Cl)c1C1C(C#N)=C(N)Oc2c1c(=O)oc1ccccc21 (configuration not stated),-2%,-9%,-5,0.0%
C[C@]12CCC3C(CC[C@H]4C[C@@H](O)CC[C@]34C)[C@H]1CC[C@H]2O (some centres not stated),nt,6%,nt,1.6%
O=C(N/N=C/c1c(O)n(-c2ccccc2)c(=S)[nH]c1=O)c1ccccc1,-45%,?,-6,?
Cc1nn(CCC#N)c2c1P(=S)(N1CCCC1)OC(c1ccc(F)cc1)=N2 (configuration not stated),-3%,0%,3,?
COc1ccccc1OCC(=O)Nc1ccc(Cl)cc1C(=O)c1ccccc1,-3%,21%,-5,-4.9%
COC(=O)C1=C(c2ccc(C(C)=O)cc2)C[C@@H]2CC[C@H]1N2C(=O)NC1Cc2ccccc2C1,nt,13%,nt,-2.5%
COC1C(C)OC(OC2CC(C)(O)Cc3cc4c(c(O)c32)C(=O)c2c(O)cc3c(c2C4=O)OC2OC3(C)C(O)C(N(C)C)C2O)C(OC)C1(C)OC (configuration not stated),nt,?,nt,?
CCOC(=O)C(O)(c1ccc(NC(=O)c2ccco2)c(OC)c1)C(F)(F)F (configuration not stated),-13%,-4%,5,-0.2%
CC(C)CN(CC(C)C)c1ccc(C=C2C(=O)NC(=S)NC2=O)cc1[N+](=O)[O-],-17%,0%,-21,7.3%
O=C(O)c1[nH]c(=O)[nH]c(=O)c1F,4%,1%,-4,2.8%
Cc1ccc(C(C)C)c(OCC(=O)N2CCN(CC(=O)N3CCOCC3)CC2)c1,nt,-13%,nt,0.6%
C/C(=N\N1CCN(C)CC1)c1c(O)[nH]c(=O)[nH]c1=O,-4%,-3%,-22,0.5%
CCOC(=O)c1c(N)n(CCCOC(=O)c2ccco2)c2nc3ccccc3nc12,9%,?,?,?
COc1ccc(N2C(=O)NC(=O)/C(=C/c3ccc(N4CCOCC4)cc3)C2=O)cc1,-5%,nt,-15,nt
CSc1ccccc1C(=O)C1CCCN(Cc2ccn[nH]2)C1 (configuration not stated),0%,11%,-4,-0.1%
Oc1ccc2c3c1OC1c4[nH]c5ccccc5c4C[C@@]4(O)C(C2)N(CC2CC2)CC[C@]314 (some centres not stated),nt,12%,nt,-0.2%
CCOCCCNC(=O)C1c2cc(OC)c(OC)cc2C(=O)N2CCCCC12 (configuration not stated),-2%,-10%,3,0.1%
CCn1cc(C(=O)N2CCCCC2)c2ccccc21,-4%,-23%,10,-2.7%
# The listing continues:
SMILES,miR-21 FLuc,Rango release inh,GLA inh pH 4.5,Rango complex inh
CCNC(=O)NC(=O)C(C)OC(=O)c1c(C)nn(Cc2ccccc2)c1Cl (configuration not stated),-4%,2%,0,3.5%
Cn1c(=O)c2c(nc(N/N=C/c3c(O)n(-c4ccccc4)c(=S)[nH]c3=O)n2C)n(C)c1=O,-1%,-16%,0,?
CCN1C(=O)CC(c2cccnc2)=Nc2ccccc21,5%,-7%,13,-2.2%
CC(=O)c1c(O)n(-c2cccc(Cl)c2)c(=O)[nH]c1=O (tested in a mixture with another compound),4%,-6%,-1,?
C[C@]12CCC(=O)C=C1C=CC1C2CC[C@@]2(C)C1CC[C@@H]2O (some centres not stated),nt,21%,nt,0.0%
CCN1CCN(c2cc(=O)n3ccccc3n2)CC1,-2%,-8%,nt,-1.3%
COC(=O)C1=C(c2cc3ccccc3s2)C[C@@H]2CC[C@H]1N2C(=O)N1CCC(C)CC1,nt,4%,nt,3.0%
C[C@]12CCC3C(CCC4=C/C(=N/OCC(=O)NC(CCC(N)=O)C(=O)O)CC[C@@]43C)C1CCC2O (some centres not stated),-22%,2%,nt,4.9%
CCCCC(CC)COCCCN=Cc1c(O)[nH]c(=S)[nH]c1=O (configuration not stated),8%,-1%,-4,-5.0%
COc1cc2c(cc1OC)C13CCN4CC5=CCOC6CC(=O)N2C1C6C5CC43 (configuration not stated) (tested in a mixture with another compound),0%,0%,-2,1.7%
CN1CC[C@@]2(C)c3cc(O)ccc3N(C)C2O1 (some centres not stated),nt,-6%,nt,?
Cc1cc(/C=C2/C(=O)NC(=O)N(Cc3ccco3)C2=O)c(C)n1-c1ccccc1O,6%,-25%,-3,?
CCOC(=O)c1ccc(S(=O)(=O)n2c(=O)oc3ccccc32)cc1,nt,45%,nt,3.5%
O=c1c2ccccc2nc(-c2ccc(Cl)cc2Cl)n1-c1nccs1,0%,-6%,8,-4.3%
O=C1CC(=O)N(c2ccccc2F)C(=O)N1,-3%,1%,nt,1.7%
Cc1ccc(S(=O)(=O)NC(CC(=O)N2CCC3(CC2)OCCO3)c2ccco2)cc1 (configuration not stated),-4%,1%,1,0.3%
CCCc1nnc(NC(=O)CCC(=O)N2CCN(CCOC(c3ccccc3)c3ccccc3)CC2)s1,17%,0%,-4,-0.2%
CNC(=O)OCCc1nccn1C,-3%,-7%,8,0.5%
CCCCCP(=O)(O)c1ccccc1,0%,5%,10,0.5%
Cn1c(O)c(C(=Nc2ccccc2)SCc2ccc(Cl)cc2)c(=O)n(C)c1=O,22%,-19%,3,?

# Given with two lines to a compound: entries from further up.
# Sequence of screens – miR-21 FLuc	Rango release inh	GLA inh pH 4.5	Rango complex inh
CCOC(=O)c1ccc(S(=O)(=O)n2c(=O)oc3ccccc32)cc1
    nt	45%	nt	3.5%
CCCCCP(=O)(O)c1ccccc1
    0%	5%	10	0.5%
Cn1c(O)c(C(=Nc2ccccc2)SCc2ccc(Cl)cc2)c(=O)n(C)c1=O
    22%	-19%	3	?
CNC(=O)OCCc1nccn1C
    -3%	-7%	8	0.5%

# Other structures follow.
SMILES,miR-21 FLuc,Rango release inh,GLA inh pH 4.5,Rango complex inh
COc1cc(C(c2c(O)c3ccccc3oc2=O)c2c(C)n(C)n(-c3ccccc3)c2=O)ccc1O (configuration not stated),4%&-4%,-12%,-1,3.1%
COc1cccc(/C=C2\N=C(c3cncc(Br)c3)OC2=O)c1,-14%,-18%,5,-0.1%
COc1ccc2[nH]cc(CCNCc3cccnc3)c2c1,1%,-3%,nt,-1.3%
Cc1nn(C(C)(C)C)c(C)c1/C=N/OC(=O)Nc1ccc(Cl)cc1,?,3%,-9,-2.3%
CC(Cc1ccccc1)NC(=O)NC(C)Cc1ccccc1 (configuration not stated),-44%,5%,1,0.8%
CC(=O)Nc1ccccc1C(=O)OCC(=O)c1cccc2ccccc12,-15%,13%,-2,0.6%
O=C(Cc1ccccc1)OCC(=O)c1ccccc1,-2%,0%,nt,-3.0%
O=C(CCNC(=O)N1C[C@H]2C[C@@H](C1)c1cccc(=O)n1C2)Nc1cccc(Cl)c1,-3%,-3%,nt,2.1%
CCCN1CCC[C@@H]2Cc3[nH]ncc3C[C@H]21,nt,15%,2&5,1.1%
Cc1ccc2cccc(OC(=O)N3CCCC3)c2n1,-5%,0%,0,4.3%

# Entries above containing a thiophene ring, fused or not:
SMILES,miR-21 FLuc,Rango release inh,GLA inh pH 4.5,Rango complex inh
CCOCCCn1c(N)c(C(=O)Nc2sc3c(c2C(=O)OC)CCCC3)c2nc3ccccc3nc21,-4%,-14%,8,?
COC(=O)C1=C(c2cc3ccccc3s2)C[C@@H]2CC[C@H]1N2C(=O)N1CCC(C)CC1,nt,4%,nt,3.0%

# Next part.
SMILES,miR-21 FLuc,Rango release inh,GLA inh pH 4.5,Rango complex inh
CCCCn1c(=O)c(C(=O)Nc2ccsc2C(=O)OC)c(O)c2ccccc21,1%,14%,2,-0.7%
Cc1c(CC(=O)N2C[C@H]3C[C@@H](C2)c2cccc(=O)n2C3)c(=O)oc2cc(O)c(Cl)cc12,1%,?,nt,?
Cc1ccc(OP2(=O)Nc3cc(C)c(C)cc3S2)cc1 (configuration not stated),nt,9%,nt,-0.8%
O=C(/C=C/c1ccccc1)C1C(=O)c2ccccc2C1=O,-30%,30%,0,-4.4%
COC(=O)C1=C(c2ccc(F)cc2OCc2ccccc2)C[C@@H]2CC[C@H]1N2C,nt,38%,nt,-1.1%
CC(=NCCC1=CCCCC1)c1c(O)[nH]c(=O)[nH]c1=O,-15%,-13%,5,-2.7%
CCC(C)N1C(=O)NC(=O)C2(Cc3cc(C)ccc3N(C)C2)C1=O (configuration not stated),0%,-3%,3,-3.6%
COc1ccc(CN2CCN(Cc3ccccc3F)CC2)cc1,-6%,13%,nt,0.7%

# Source: PubChem BioAssay (National Center for Advancing Translational Sciences (NCATS))
